Compound activity: PubChem, ICCB-Longwood Screening Facility, Harvard Medical School
RVFV N-RNA FP = blocks Rift Valley Fever Virus nucleoprotein binding to RNA | P21700 | RVFV N-RNA binding, fluorescence polarization; hits give low values | % bound, % (concentration not given with the values) | hit rate 0.1% among 20,000 | AID 651828;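 active means between 0 and 58% in either replicate with normal brightness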;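 further: 100 nL library stock added to about 12 µL; 100% = protein and probe without compound and 0% = probe alone; numbers are from one replicate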
Target sequence (P21700 whole entry, looked up): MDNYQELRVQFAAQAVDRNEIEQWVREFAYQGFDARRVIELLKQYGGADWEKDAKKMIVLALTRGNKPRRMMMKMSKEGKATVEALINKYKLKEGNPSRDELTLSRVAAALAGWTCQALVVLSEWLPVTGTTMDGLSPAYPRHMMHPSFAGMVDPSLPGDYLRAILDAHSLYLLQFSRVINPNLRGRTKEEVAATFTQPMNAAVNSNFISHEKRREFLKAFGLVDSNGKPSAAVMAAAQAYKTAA
The depositor's hits bear a star; & = joins results of further samples. A portion of the library; rates above refer to the full screens.

entry	Structure	RVFV N-RNA FP
1	O=C(COc1ccc(Cl)cc1)N1CCN=C1SCc1cccnc1	98
2	O=C(CSc1ncnc2c1nnn2Cc1ccccc1)Nc1ccccc1	95
3	CN(n1cnc2ccccc2c1=O)S(C)(=O)=O	99
4	Cc1cccc(CNCc2ccc3c(c2)OCO3)c1	104
5	CC(C)C(=O)c1c(C(C)C)nn2ccccc12	96&97
6	CCC(=O)Nc1ccc(S(=O)(=O)N(C)C2CCCCC2)cc1	99
7	N#Cc1ccccc1NC(=O)CN1CCCC1	103
8	Cn1ccnc1Sc1cnc(=S)[nH]c1-c1ccc(Cl)cc1	96
9	CCCNc1nc(Cl)nc(NCC(=O)OCC)n1	86
10	O=c1[nH][nH]c(=S)n1-c1cccc(F)c1	92
11	CNC(=S)NCc1cccnc1	96
12	CSc1ccc(S(=O)(=O)NC(C)C)cc1	91
13	CCCCC(CC)c1nnc(N)s1 (stereo not given)	88
14	C=CCn1c(CNC(=O)c2ccc(OC)cc2)nnc1SCc1nc2ccccc2c(=O)[nH]1	97
15	Cc1ccc(C(=O)NC(=O)CSc2nnc(C)s2)cc1	100

More results follow.
entry	Structure	RVFV N-RNA FP
16	O=S(=O)(NCC(c1cccs1)N1CCc2ccccc2C1)c1ccccc1 (stereo not given)	99
17	S=C(c1ccc(-c2ccccc2)o1)N1CCCCC1	93
18	Cc1cc(OC(=O)N(C)C)nc(SCc2c(F)cccc2Cl)n1	94
19	CCOC(=O)c1cnc(-c2cccc(OC)c2)[nH]c1=O	93
20	CCOc1ccc(C(=O)NC(CC)CC)cc1OCC	98
21	Oc1cccnc1CCc1ccccc1	100
22	Cc1nnc(SCC(=O)N/N=C/c2cccc3cccnc23)n1-c1ccccc1	99
23	O=C(NCc1n[nH]c(=O)c2ccccc12)NC1CCCCC1	98
24	O=C1CC(=O)N(Cc2ccc(F)cc2)C(=O)N1	93
25	CCn1c(NNC(=O)c2cccnc2)nc2ccccc21	93
26	CCOc1ccccc1NC(=O)C1CCC(=O)N1S(=O)(=O)c1ccc(C)cc1 (stereo not given)	100
27	CC1(C)CC(=O)c2cnn(-c3nc4ccccc4[nH]3)c2C1	96
28	N#C/C(=C(/O)c1cccc(Cl)c1)c1nc2ccccc2s1	93
29	Cn1ncc(C(=O)O/N=C/c2ccc(OC(F)(F)F)cc2)c1-n1cccc1	101
30	CC(c1ccccc1)n1cnc2c(cnn2-c2ccc(F)cc2)c1=O (stereo not given)	93

New compounds follow
entry	Structure	RVFV N-RNA FP
31	O=C(Nc1ccccc1)N(Cc1ccco1)C1CCS(=O)(=O)C1 (stereo not given)	100
32	COC(=O)Nc1ccc(S(=O)(=O)C(F)F)cc1	91
33	CCN(CC)C(=O)C1=C(C)Nc2nnnn2C1c1cccnc1 (stereo not given)	93
34	CC(=O)Nc1ccc(OCC(O)CN2CCN(C(c3ccccc3)c3ccccc3)CC2)cc1 (stereo not given)	95
35	CCOC(=O)Cn1c(O)c(N=NC(=O)c2cccc(F)c2)c2ccccc21	94
36	Cc1ccc(-n2nnc(C(=O)NC(C)C)c2C)cc1	95
37	O=C1Cc2cc(NS(=O)(=O)c3ccccc3)cc3c2N1CCC3	102
38	C/C(=N\NC(=O)c1cc(Br)ccc1O)c1ccccn1	97
39	COc1cc2[nH]c(=S)n(N(C(C)=O)C(C)=O)c(=O)c2cc1OC	94
40	CN(C)c1ccc(C2NN(Cc3ccccc3)C3C(=O)N(C4CCCCC4)C(=O)C23)cc1 (stereo not given)	94
41	CCCCC(=O)Nc1ccc(C(=O)Nc2cccnc2)cc1	92
42	Cc1cn2c(=O)c(C(=O)N3CCC(CCCC4CCN(C(=O)c5cnc6sc(C)cn6c5=O)CC4)CC3)cnc2s1	81
43	C=CCn1c(Cc2ccc(O)c(Cl)c2)n[nH]c1=S	88
44	NS(=O)(=O)c1ccc(C(=O)OCc2ccccc2)cc1	87
45	O=C(COc1ccc2oc(-c3ccco3)cc(=O)c2c1)NC1CCCCC1	98

More structures follow.
entry	Structure	RVFV N-RNA FP
46	NC(=O)c1oc2ccccc2c1NC(=O)CSc1ccc(F)cc1	95
47	Nc1ccc(-c2nc3cccnc3s2)cc1	98
48	O=C(Nc1ccccn1)C1c2ccccc2Oc2ccccc21	87
49	CC(=O)Nc1ccc(NC(=O)c2ccc(-c3cccc(C(F)(F)F)c3)o2)cc1	93
50	NC(=O)c1ccccc1NC(=O)Nc1ccccc1	100
51	N#CCCN(Cc1ccccc1)C(=S)Nc1ccccc1	96
52	COc1ccc(N2CCN(/C(=N/S(=O)(=O)c3ccccc3)Nc3nc(C)cc(C)n3)CC2)cc1	95
53	O=C(O)C1C2CC3CC(C2)CC1C3 (stereo not given)	99
54	c1cc(CNc2ccc3c(c2)CCC3)ccn1	91
55	COc1ccc(S(=O)(=O)N(C)CC(=O)O)cc1	98
56	Nc1ccc2c(c1)CCC2=O	109
57	NC(=O)c1oc2ccccc2c1NC(=O)CS(=O)(=O)c1ccccc1	93
58	Cc1ccc(-c2nn(C)c(=O)c3ccccc23)cc1CNC(=O)CN1CCOCC1	98
59	CC(=O)N1N=C(c2cccs2)CC1c1c(C)coc1C (stereo not given)	101
60	CCSc1nc(=O)[nH]c2c1CCCC2	93

Next part:
entry	Structure	RVFV N-RNA FP
61	O=c1c2ccccc2nc2ccccn12	99
62	CC(=O)OCC(=O)C12OC3(CCCC3)OC1CC1C3CCC4=CC(=O)C=CC4(C)C3(F)C(O)CC12C (stereo not given)	91
63	CC1=C(C)C(=O)N(CCC(=O)O)C1=O	89
64	Cc1ccc(-c2ccc(SCC#N)nn2)c(C)c1	93
65	CCN1CCN(C(=O)N(CC)CC)CC1	100
66	O=C(COc1ccc(S(=O)(=O)N2CCCc3ccccc32)cc1)NCC1CCCO1 (stereo not given)	95
67	O=C(N/N=C/c1cccs1)c1ccccc1	91
68	Cc1onc(-c2ccccc2)c1C(=O)Nc1ccc(N)cc1	92
69	O=C1N=C(N2CCCC2)S/C1=C\c1cn[nH]c1-c1ccccc1	96
70	O=C1CC(C(=O)Nc2ccccc2)C2=C(CC(c3ccco3)CC2=O)N1 (stereo not given)	97
71	Cc1ccc(NCC(O)C(O)C(O)CO)cc1C (stereo not given)	104
72	CN1CCN(c2nc3cc(C(F)(F)F)ccc3n3cccc23)CC1	96&102
73	CCOc1ccccc1NC(=O)C(C)Sc1ccccc1 (stereo not given)	98
74	Cc1ccc(C2Nc3ccccc3C(=O)N2CCN2CCNC2=O)cc1 (stereo not given)	108
75	COC(=O)c1cccc(NC(=O)/C=C/c2ccco2)c1C	83

(more compounds)
entry	Structure	RVFV N-RNA FP
76	Cc1cccn2c(=O)c(C(=O)NC3CCCCC3C)c(O)nc12 (stereo not given)	102
77	CN(C(=O)Cc1ccc(Cl)c(Cl)c1)C(CN1CCCC1)c1cccc(OCC(=O)O)c1 (stereo not given)	98
78	O=C(NC1(O)C(=O)c2ccccc2C1=O)c1ccccn1	96
79	COCc1cc(C)nc(SCC(=O)N2CCOCC2)c1C#N	92
80	O=C(NCc1cccs1)c1ccc(Cl)cc1	100
81	O=c1c2sc3nc(N4CCOCC4)c4c(c3c2ncn1-c1ccccn1)CCCC4	102
82	CC(C)NC(=O)C(C)SCc1ccccc1 (stereo not given)	94
83	[Cl-].[Cl][Pt].[NH2-].[NH2-].c1ccncc1	94
84	O=S(=O)(c1ccccc1)N1CCC2(CC1)OCCN2S(=O)(=O)c1ccccc1	95
85	O=C(Nc1ccccc1)c1cc([N+](=O)[O-])ccc1Cl	98
86	c1ccc(-n2nnnc2-c2cnoc2-c2cccs2)cc1	90
87	OCCN1CCN(CCCN2c3ccccc3C=Cc3ccccc32)CC1	92
88	CNC(=O)c1ncoc1-c1ccc(Cl)cc1	90
89	COc1ccc(C(=O)N=S2CCN(C(=O)c3ccc(Cl)cc3)CC2)cc1	96
90	CC(=O)Nc1c(C)cc(C(O)(C(F)(F)F)C(F)(F)F)cc1C	90

The list continues.
entry	Structure	RVFV N-RNA FP
91	COc1cc(C#N)ccc1OCC(=O)Nc1ccc(C)cc1C	96
92	Cn1nnc(NC(=S)NC(=O)Cc2ccccc2)n1	108
93	COCCOc1cc2ncnc(Cl)c2cc1OCCOC	94
94	C#CCn1c(=NC(=O)COc2ccccc2)sc2cc(S(N)(=O)=O)ccc21	99
95	OC(CN1c2ccccc2Sc2ccccc21)Cn1nnc2ccccc21 (stereo not given)	89
96	Cc1cc(NC(=O)CCN2C(=O)C3C4C=CC(C4)C3C2=O)c(C)cc1Br (stereo not given)	96
97	Nc1nncn1C(=O)CCCN1C(=O)c2ccccc2C1=O	92
98	CCCCN(C)S(=O)(=O)c1cc2c3c(c1)CCC(=O)N3CCC2	92
99	CCOC(=O)C1CCN(Cc2ccccc2)CC1	99
100	O=C(O)C1=CCCNC1	93
101	COc1ccccc1C1(C#N)CCOCC1	89
102	CNC(=O)CN(Cc1ccccc1)S(=O)(=O)c1ccccc1	104
103	COC(=O)c1ccsc1NC(=O)CC1SC(N)=NC1=O (stereo not given)	89
104	Cc1c(O)ccc(C(=O)Cc2ccc(F)cc2)c1O	93
105	COc1ccc(/C=C/C(=O)Nc2c(C(N)=O)oc3ccccc23)cc1OC	93

The results go on:
entry	Structure	RVFV N-RNA FP
106	O=c1cccccc1NC1CCCCC1	99
107	CC12COC3(C#N)CC1CCC32C (stereo not given)	101
108	CCCCSc1nc2c(c(C(F)(F)F)c1C#N)CCC2	98
109	CN1CCN(c2nc(-c3ccccc3)cc(-c3ccc(Br)cc3)n2)CC1	95
110	CCC(=O)c1ccc(OC(=O)N(C)c2ccccc2)cc1	109
111	CC(C)(Oc1ccc(Cl)cc1)C(=O)NN	96
112	C=CCn1nnnc1SCC(=O)Nc1ccc(OC)cc1	95
113	N#Cc1ccccc1OCCCCSc1ncccn1	95
114	C=C(C)CN(CC)Cc1ccc(C(=O)OC)cc1	100
115	COC(=O)c1cc(S(=O)(=O)C(C)C)c(S(C)(=O)=O)s1	94
116	COc1ccc(CNc2ccc(NC(=O)c3ccco3)c(C)c2)cc1	102
117	CCN1C(=O)/C(=C2/C=Cc3ccccc3N2C)OC1=S	97
118	NC(N)=N/N=C/C=C/c1ccccc1	94
119	C=CCNC(=S)NNc1nccc(-c2cccnc2)n1	93
120	O=C(CSc1nccc(=O)[nH]1)Nc1ccc(Oc2ccccc2)cc1	93

Additional compounds follow:
entry	Structure	RVFV N-RNA FP
121	NC(=O)C1(N2CCCCC2)CCN(C(=S)NCc2ccco2)CC1	94
122	CN1CCN(C2Cc3ccccc3Sc3ccc(Cl)cc32)CC1 (stereo not given)	97
123	COc1ccc(S(=O)(=O)NCCc2cn3cccc(C)c3n2)cc1OC	97
124	Cc1ccc(CS(=O)(=O)CC(O)COc2ccc(F)cc2)cc1 (stereo not given)	97
125	COc1ccc(CN(C)Cc2ccccc2)cc1	102
126	CCSc1ccc(NC(=O)Cc2ccccc2)cc1	99
127	O=c1oc2ccccc2c2c1Sc1ccccc1N2	90
128	COc1ccccc1C(=O)NCc1ccc2[nH]c(C)cc2c1	92
129	CCCCCN=C(N)NN=Cc1c[nH]c2ccc(OC)cc12	94
130	CC1=CC(=C2C(=O)c3ccccc3C2=O)C=C(C)N1CCN1CCOCC1	85
131	CCCc1nc(-c2ccccn2)[nH]c(=O)c1Cc1c(F)cccc1Cl	93
132	CN(C)/C=N/c1nnc(SCC(=O)c2ccc(Cl)cc2)s1	91
133	Cn1c2ccccc2c2nnc(NN)nc21	98
134	COc1ccc(Br)c(C(=O)/C(C#N)=N/O)c1	95
135	CCCCN(C)Cc1cccc(OC)c1OC	91

Four records picked at random from those above, as already listed:
entry	Structure	RVFV N-RNA FP
123	COc1ccc(S(=O)(=O)NCCc2cn3cccc(C)c3n2)cc1OC	97
134	COc1ccc(Br)c(C(=O)/C(C#N)=N/O)c1	95
133	Cn1c2ccccc2c2nnc(NN)nc21	98
126	CCSc1ccc(NC(=O)Cc2ccccc2)cc1	99

The listing picks up; the 12 compounds before the break are reprinted first.
entry	Structure	RVFV N-RNA FP
124	Cc1ccc(CS(=O)(=O)CC(O)COc2ccc(F)cc2)cc1 (stereo not given)	97
125	COc1ccc(CN(C)Cc2ccccc2)cc1	102
126	CCSc1ccc(NC(=O)Cc2ccccc2)cc1	99
127	O=c1oc2ccccc2c2c1Sc1ccccc1N2	90
128	COc1ccccc1C(=O)NCc1ccc2[nH]c(C)cc2c1	92
129	CCCCCN=C(N)NN=Cc1c[nH]c2ccc(OC)cc12	94
130	CC1=CC(=C2C(=O)c3ccccc3C2=O)C=C(C)N1CCN1CCOCC1	85
131	CCCc1nc(-c2ccccn2)[nH]c(=O)c1Cc1c(F)cccc1Cl	93
132	CN(C)/C=N/c1nnc(SCC(=O)c2ccc(Cl)cc2)s1	91
133	Cn1c2ccccc2c2nnc(NN)nc21	98
134	COc1ccc(Br)c(C(=O)/C(C#N)=N/O)c1	95
135	CCCCN(C)Cc1cccc(OC)c1OC	91
136	COc1ccccc1C(C#N)N1N=C(C)CC1c1ccccc1 (stereo not given)	95
137	COc1ccc(S(=O)(=O)N(CCc2ccccc2)CC(=O)N2CCN(C)CC2)cc1Cl	97
138	O=C1NC(=Nc2ccccc2O)CS1	97
139	O=c1[nH][nH]c(=S)n1C1CCCCC1	82
140	CCCCn1c(SCC(=O)O)nc2ccccc21	95
141	Oc1ccc(Br)c2cccnc12	91
142	O/N=C/c1cc(Cl)cc(Cl)c1	93
143	N#C/C(=C\N1CCOCC1)C(=O)Nc1ccc(F)c(Cl)c1	99
144	CN(Cc1ccccc1)c1nc(-c2ccccc2)cs1	98
145	C=C(C)[C@H]1CN[C@H](C(=O)O)[C@H]1CC(=O)O	97
146	Cc1cc2cc(CN3C(=O)c4ccccc4C3=O)ccc2[nH]1	96
147	CCCCNC(=O)n1ccc(-c2nn(-c3ccc(F)cc3)ccc2=O)n1	98
